AmpC inh no det: Promiscuous and Specific Inhibitors of AmpC Beta-Lactamase (assay without detergent) | P00811 | AmpC nitrocefin hydrolysis, absorbance 480 nm, no detergent; potencies from a single point are estimates | Potency, µM (doses to about 28.7 µM), inactives show at the highest dose activity change, negative = inhibition | 71,000 compounds, 1.8% hits | AID 585, 2007; active = falling curve, for most hits resting on a single point; inconclusive = weak or doubtful change; inactive = flat or rising curve; also: % of control where 0% means no effect; about half of the hits show no inhibition at the top dose; a quarter of the inactives give rising signals
Target sequence (P00811 whole entry, looked up): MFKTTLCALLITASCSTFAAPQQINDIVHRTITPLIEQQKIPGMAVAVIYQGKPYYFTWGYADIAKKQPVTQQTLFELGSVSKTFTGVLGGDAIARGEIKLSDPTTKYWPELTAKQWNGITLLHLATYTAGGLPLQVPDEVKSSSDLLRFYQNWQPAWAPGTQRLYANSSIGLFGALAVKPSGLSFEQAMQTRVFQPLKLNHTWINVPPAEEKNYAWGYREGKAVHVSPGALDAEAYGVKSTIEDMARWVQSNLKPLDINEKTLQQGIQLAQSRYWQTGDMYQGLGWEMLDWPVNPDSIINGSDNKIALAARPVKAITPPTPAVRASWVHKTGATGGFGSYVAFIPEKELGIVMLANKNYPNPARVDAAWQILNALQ
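Enzyme, pH 7.0 phosphate. Compound titrations were pre-incubated with AmpC for 15 min at room temperature before nitrocefin (stock 800 uM) addition; product formation was recorded at 480 nm every 20 s for 4 min.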
Active calls of the source: *; ? = inconclusive; [ ] = another dose, or the depositor's remark. Potency is read from the fitted curve at half-maximal effect. The list is partial; rates above refer to the full screens.

The opening 4 records as a preview:
SMILES | AmpC inh no det
COCCNC(=O)C(c1cccc(OC)c1)N(C(=O)Cn1nnc2ccccc21)c1cccnc1 (stereo unspecified) | 10.2%
Cc1cc(C)n(-c2nc3ccccc3nc2N2CCN(S(=O)(=O)c3ccc(F)c(C)c3)CC2)n1 | 71.8%
COc1ccc(O)c(-c2cc(-c3cccs3)[nH]n2)c1 | 1.1%
c1ccc(C2C3=C(Nc4ncnn42)c2ccccc2CCC3)cc1 (stereo unspecified) | -13.6%

This part in full, previewed entries included:
SMILES | AmpC inh no det
COCCNC(=O)C(c1cccc(OC)c1)N(C(=O)Cn1nnc2ccccc21)c1cccnc1 (stereo unspecified) | 10.2%
Cc1cc(C)n(-c2nc3ccccc3nc2N2CCN(S(=O)(=O)c3ccc(F)c(C)c3)CC2)n1 | 71.8%
COc1ccc(O)c(-c2cc(-c3cccs3)[nH]n2)c1 | 1.1%
c1ccc(C2C3=C(Nc4ncnn42)c2ccccc2CCC3)cc1 (stereo unspecified) | -13.6%
CCC(=O)Nc1cccc(NC(=O)c2cc3ccccc3o2)c1 | 4.1%
CCCCCCNC(=O)C(C#N)c1nc2ccccc2nc1N1CCCC1 (stereo unspecified) | -3.6%
CC(C)OCCCNc1ncnc2c1[nH]c1ccccc12 | -8.5%
COc1ncc2nc(-c3ccc(F)cc3)c(=O)n(-c3ccccc3)c2n1 | 8.1%
CCCOc1ccccc1-c1nc(SCCC(=O)O)n[nH]1 | 25.5%
O=C(Nc1ccccn1)C(NS(=O)(=O)c1cccc2nsnc12)c1ccccc1 (stereo unspecified) | ?
COc1ccc(CNC(=O)COC(=O)c2ccc3c(c2)OCCO3)cc1 | -20.3%
Cc1ccc(-c2noc(CCC(=O)Nc3cccc(C#N)c3)n2)cc1 | 3.0%
O=C1CN=C(c2cccs2)c2c(sc3c2CCCC3)N1 | -6.0%
CC(=O)O[C@]12CC[N@+]3(C)CCCC[C@@H]3[C-]1Nc1ccccc12 | -2.7%[5.75 µM]
CC(=O)N[C@@H]1CONC1=O | 1.9%[5.75 µM]
Clc1ccc(CSc2nnc(Cn3cnc4ccccc43)o2)cc1 | 66.9%
CC(C)CC(=O)N1CCN(Cc2cccc(F)c2)CC1 | 45.9%
CC(=O)NCCOc1ccc2oc3ccccc3c2c1 | 40.0%
COc1ccc(NC2c3ncccc3C(=O)N2Cc2ccccc2)c(OC)c1 (stereo unspecified) | 75.0%
CCOc1ccccc1C(=O)N(C)Cc1cc2ccccc2[nH]c1=O | 16.6%
c1ccc(-c2nnn(CCN3CCCCC3)n2)cc1 | 5.9%[5.75 µM]
CCC(C)NC(=O)CN(c1cc(C)ccc1OC)S(C)(=O)=O (stereo unspecified) | -8.0%
CCCC[C@@H]1C[C@H]1C(NC(=O)c1cccs1)c1ccc(-c2ccccc2)cc1 (stereo partly specified) | -9.3%
COC(=O)C1C(c2ccccc2)C(C(=O)N2CCOCC2)C1c1ccccc1 (stereo unspecified) | 19.5%
Cc1ccc(CN2C(=O)C(C)(C)Oc3ccc(C(=O)N4CCCCC4)cc32)cc1 | 83.3%
CCN(CC)c1ccc2cc(NC(=O)CCC(=O)O)c(=O)oc2c1 | -11.1%
CCN(CC)S(=O)(=O)c1cc(C(=O)OC)ccc1Cl | 8.1%
CCCCCSc1nnc(C)c(=O)[nH]1 | -10.1%
CCCn1c(=O)c(-c2ccccc2)c(O)c2ccccc21 | -8.9%
Cc1noc(C)c1S(=O)(=O)N1CCC(C(=O)N2CCC(C)CC2)CC1 | 24.2%
CN(CC(=O)O)CC(=O)O | -14.3%[5.75 µM]
COc1ccccc1NC(NC(=O)c1ccco1)C(=O)c1ccccc1 (stereo unspecified) | -3.2%
FC(F)(F)c1ccc(Sc2nnc(-c3cccs3)n2CC2CCCO2)nc1 (stereo unspecified) | 22.6%
O=C(CS(=O)CC(=O)Nc1ccc(Cl)cc1)NCC1OCCc2ccccc21 (stereo unspecified) | 33.2%
CCOC(=O)CC(=O)CSc1nc(C)cc(-c2cccnc2)c1C#N | 25.1%
Nc1ncnc2c1ncn2CCN1CCCCC1 | -2.4%
CCCC(=O)Nc1cccn(Cc2ccccc2Br)c1=O | -4.6%
CCC1Oc2ccccc2N(CC(=O)NCCCN2CCOCC2)C1=O (stereo unspecified) | 8.9%
Cc1cccc(C)c1OCC(=O)Nc1ncn[nH]1 | 4.7%
Clc1cccc(CSc2nnc(-c3cccnc3)n2Cc2ccco2)c1 | 65.3%
COc1cc2[nH]c3c(N4CCN(c5ccc(Cl)cc5)CC4)ncnc3c2cc1OC | 40.7%
Cc1cc(C)c2oc(=O)cc(CN3CCOCC3)c2c1 | 1.3%
Cc1cccc(C)c1NC(=O)COC(=O)c1nonc1N | 1.7%
Cc1ccc2c(C)nc(NC3=NCN(C(C)C)CN3)nc2c1 | -7.0%
COc1cccc2cc(-c3nc(-c4cccs4)cs3)c(=O)oc12 | ?
CCOC(=O)c1cccc(NC(=O)N[C@@H](C)C(=O)OC)c1 | -11.7%
CCOCCCNCC(=O)Nc1ccc(OC(F)(F)F)cc1 | -9.9%
COc1ccc2c(c1)c(C(=O)CN1CCC3(CC1)OCCO3)c(C)n2C | 46.2%

Copied from the list.
Under AmpC inh no det, `Cc1ccc2c(C)nc(NC3=NCN(C(C)C)CN3)nc2c1` is listed with -7.0%
Under AmpC inh no det, `Cc1noc(C)c1S(=O)(=O)N1CCC(C(=O)N2CCC(C)CC2)CC1` is listed with 24.2%
Under AmpC inh no det, `COc1ccc(O)c(-c2cc(-c3cccs3)[nH]n2)c1` is listed with 1.1%
Under AmpC inh no det, `COc1cc2[nH]c3c(N4CCN(c5ccc(Cl)cc5)CC4)ncnc3c2cc1OC` is listed with 40.7%

Going on with the list:
SMILES | AmpC inh no det
Nc1ccccc1SCc1cn2ccccc2n1 | -1.4%
COC(=O)CCS(=O)(=O)c1cc(Cl)ccc1Cl | 0.7%
N=c1nc(N)nc(N)n1-c1ccc(S(N)(=O)=O)cc1 | -10.1%[5.75 µM]
Cn1c(CCN2CCCCC2)nc2cc(NC(=O)C3CCCCC3)ccc21 | 2.2%
CCN(CC)CCc1c(C)[nH]c(C(=O)OCc2ccccc2)c1C | 21.9%
c1ccc(N2CC[C@@]3(CCCNC3)C2)cc1 | 18.1%
CC(=O)Nc1ccc(OC/C=C(\C)Cl)cc1 | 7.9%
CN(C)C(=O)c1ccc(-c2cncnc2NCc2cccs2)cc1 | 5.0%
CCCS(=O)(=O)N1CCCC(C(=O)NCCN(Cc2ccccc2)C(C)C)C1 (stereo unspecified) | 14.7%
CCN(CC)CCCNc1nc2ccccc2[nH]1 | -19.8%
CC(=O)c1c(C)[nH]c(C(=O)OCc2nnc(-c3ccccc3)o2)c1C | 103.2%
COC(=O)CSc1nnc(CNC(=O)c2ccco2)n1-c1ccc(F)cc1 | 3.6%
O=C(CSc1nnnn1-c1ccc2c(c1)OCCO2)c1cccc2c1OCCO2 | ?
CCOC(=O)c1ccc(NC(=O)c2nccnc2C(=O)O)cc1 | -1.2%
O=C(O)c1ccccc1-c1c2cc(Br)c(=O)cc-2oc2[c]([Hg])c(O)c(Br)cc12 | -16.8%[12.8 µM]
NC(=O)Cn1c(=O)n(CCCC(=O)NC2CCN(Cc3ccccc3)CC2)c(=O)c2ccccc21 | 5.9%
COCCOC(=O)c1[nH]c2c(c1C)C(=O)CC(c1ccccc1)C2 (stereo unspecified) | 7.8%
O=C1CCC(=O)N1CNc1ccc(Oc2ccccc2)cc1 | 8.7%
CCOC(=O)Nc1ccc(Oc2ccccc2)cc1 | -11.2%
CC1CCc2sc3ncnc(N4CCOCC4)c3c2C1 (stereo unspecified) | 41.2%
Brc1ccccc1-c1nnc(CSc2nncn2-c2ccccc2)o1 | 11.4%
C#CCN(C#N)c1nc(NCC)nc(NC(C)C)n1 | -8.3%
CC(C)c1nnc(NC(=O)Cn2nc(-c3ccc4c(c3)OCCO4)ccc2=O)s1 | 17.7%
O=C(O)CCN1CCc2ccccc21 | -3.0%
O=S(=O)(Nc1ccc2c(c1)nc1n2CCOC1)c1ccc(Cl)cc1 | -9.8%
COC(=O)C1=C(C)N(c2cccc3ccccc23)C(=O)C1 | 10.0%
COc1ccc(NC(=O)C(C)NS(=O)(=O)c2ccccc2)cc1Cl (stereo unspecified) | -5.6%
CN1CCN(c2ncc3ncc(=O)n(C)c3n2)CC1 | 8.5%
Cc1ccc(O)c(C(=O)c2cc(C#N)c(=O)n(CC3CCCO3)c2)c1 (stereo unspecified) | 7.1%
S=c1[nH]nc(-c2ccccc2)n1CC1CCCO1 (stereo unspecified) | -3.8%
CN(C)c1nc(SCCOC(=O)c2ccccc2)nc(N(C)C)n1 | 53.8%
Cc1ccc(S(=O)(=O)c2nc(S(C)(=O)=O)sc2N(C)C)cc1 | 9.5%
O=C(c1ccco1)N1CCN(C(=O)c2cc3c(s2)-c2ccccc2OC3)CC1 | 135.5%
CC1Oc2ccccc2N(CC(=O)Nc2ccc3c(c2)OCCO3)C1=O (stereo unspecified) | -1.5%
CCN(CC)C(=O)N1CCN(C(=O)c2ccc(C)cn2)CC1 | 4.0%
COc1ccc(OC)c(NC(=O)c2ccc(S(=O)(=O)N3CCN(C)CC3)cc2)c1 | 63.2%
Cc1c(OCC(=O)OC(C)C)ccc2c3c(c(=O)oc12)CCC3 | 24.1%
COc1ccc2cc(C(=O)CCC(=O)O)ccc2c1 | 0.0%[5.75 µM]
CCOC(=O)c1ccccc1NC(=O)c1ccc(N(C)S(C)(=O)=O)cc1 | 52.2%
Cc1ncc(CNC(=O)N(CCCl)N=O)c(N)n1 | 4.3%
CCc1c(C)sc(NC(=O)OC)c1C(=O)N1CCCCC1 | 25.7%
CCOC(=O)c1c(CN2CCCCC2C)oc2ccc(OC)cc12 (stereo unspecified) | 33.9%
Cc1ccnc(N2C(=O)OC(C)(C)C2(C)O)c1 (stereo unspecified) | -11.3%
C=CCn1c(=O)c2c3c(sc2n2c(Nc4ccc(OC)cc4)nnc12)CCCC3 | 76.7%
O=C(CCn1c(=O)sc2ccccc21)NCc1ccco1 | 5.9%
CC1(C)S[C@@H]2[C@H](C(=O)O)N=C(Cc3ccccc3)N2[C@H]1C(=O)O | -0.8%[5.75 µM]
COc1ccc2[nH]cc(CCNc3ncncc3-c3ccc(C(=O)N(C)C)cc3)c2c1 | 10.7%
CCOCC(=O)Nc1ccc(-c2cn3cccnc3n2)cc1 | 7.0%

Random excerpt: 2 records from the list
SMILES | AmpC inh no det
CCOC(=O)c1c(CN2CCCCC2C)oc2ccc(OC)cc12 (stereo unspecified) | 33.9%
O=C(CCn1c(=O)sc2ccccc21)NCc1ccco1 | 5.9%

(listing goes on)
SMILES | AmpC inh no det
CCCCOC(=O)Cn1c(=O)c2c(nc3n2CCCCN3c2ccc(C)cc2)n(C)c1=O | 113.1%
CC(=O)Nc1ccc(C(=O)OC2CCOC2=O)cc1 (stereo unspecified) | -11.9%
COc1ccc(CN2C(=O)CN=C2Nc2cc(C)ccc2C)cc1 | 29.9%
COc1ccc(N(CC(=O)NCc2cccs2)S(=O)(=O)c2cccnc2)cc1 | 5.1%
CS(=O)(=O)N(CCc1ccccc1)CC(N)=O | -11.6%
Cc1cc(C(=O)O)ccc1[C@H](N)C(=O)O | 3.6%
CCN1C(=O)c2n[nH]c(C(=O)OC)c2C1=O | -5.1%
CCCCNc1nc2ccccc2nc1NS(=O)(=O)c1cccs1 | -18.2%
CCCc1ccc(OCc2nc(-c3ccc(NC(=O)c4ccco4)cc3)no2)cc1 | -8.6%
CCc1nnc(NC(=O)CSc2nnc(-c3ccc(O)cc3)n2-c2ccccc2)s1 | 36.2%
Cc1cc(C(=O)Nc2nnc(-c3ccccc3)s2)no1 | -7.6%
CCCC(=O)Nc1cccc(-c2nc3ccccc3o2)c1 | -7.8%
Cc1cccc(NC(=O)C2CC(O)CN2C(=O)OCc2ccccc2)c1 (stereo unspecified) | 34.1%
CCCSc1nc2c(c(=O)n(C)c(=O)n2C)n1Cc1ccc(C)cc1 | 79.8%
CC(=O)C1=C(O)C(=O)N(c2cc(C(C)(C)C)on2)C1c1ccc(C(C)C)cc1 (stereo unspecified) | -0.3%
Cn1cccc1Cc1nnc(SCC(=O)N2CCc3ccccc32)n1CCc1ccccc1 | 130.7%
CCn1c(SCC(=O)C(C)(C)C)nnc1-c1ccccn1 | 13.5%
Cn1c(=O)oc2cc(S(=O)(=O)N3CCCC(C(=O)N4CC=C(c5ccccc5)CC4)C3)ccc21 (stereo unspecified) | 101.8%
COc1ccc(-c2noc(-c3ccccc3C(=O)Nc3cccnc3)n2)cc1OC | 88.2%
ClC(Cl)c1ccccc1 | -6.3%
c1cncc(CNc2cc(-c3ccc4c(c3)OCO4)ncn2)c1 | -1.7%
COc1ccc(S(=O)(=O)N2CCC(O)(c3ccc(Cl)cc3)CC2)cc1 | -6.2%
CC(=O)N1CC=CC1(CC(C)C)C(=O)NCC1CC1 (stereo unspecified) | 4.7%
O=C1Nc2ccccc2C12OCCO2 | -2.7%
CCc1cc(C(=O)OC)c(NC(=O)CCCC(=O)O)s1 | 0.2%
C/C(=N\O)c1ccc(N2C(=O)C3CC=C(Cl)CC3C2=O)cc1 (stereo unspecified) | 8.3%
C/C(N)=C(/C#N)C(=O)CN1CCCCC1 | -13.7%
O=C(CCCOc1ccccc1)N1CCN(C(=O)c2ccco2)CC1 | 25.9%
O=C(CN1C(=O)NC2(CCc3ccccc32)C1=O)Nc1cc(C(F)(F)F)ccc1N1CCOCC1 (stereo unspecified) | 96.3%
O=C(Nc1cnccn1)c1cccnc1 | -2.1%
CCOC(=O)COc1ccc2c(c1)c(C(=O)OCC)c(C)n2CC | 61.7%
Cc1ccc(C2C3=C(CCCC3=O)Nc3[nH]c(=S)[nH]c(=O)c32)cc1 (stereo unspecified) | -18.1%
COc1cccc(CNS(=O)(=O)c2cn(C)cn2)c1 | -9.9%

Compounds shown so far that contain a tert-butyl group (two):
SMILES | AmpC inh no det
CC(=O)C1=C(O)C(=O)N(c2cc(C(C)(C)C)on2)C1c1ccc(C(C)C)cc1 (stereo unspecified) | -0.3%
CCn1c(SCC(=O)C(C)(C)C)nnc1-c1ccccn1 | 13.5%

Bioassay records as filed in PubChem.
